Bioassay records (PubChem BioAssay)
Yeast UUG start – yeast start codon fidelity modulation; S. cerevisiae UUG-firefly luciferase reporter, luminescence/redox ratio; activity score, % at 18.7 µM; 0.13% of 350,000 active;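 active = replicate mean at a twofold rise or more, about +100% in these data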;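 also: firefly luciferase made from a UUG start codon reports start codon fidelity; reporter light over untreated wells divided by growth signal over untreated wells; some hits fall short of that in this replicate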
* marks the source's active call; other numbers are inactive results. These rows are one share of the data. The share of hits here may be higher or lower than overall.

Structure | Yeast UUG start
C[C@H](CO)N1C[C@H](C)[C@@H](CN(C)S(C)(=O)=O)Oc2ccc(NC(=O)Nc3ccccc3)cc2CC1=O | 11.4
COCC(=O)N1C[C@H]2[C@@H](c3ccccc31)[C@@H](CO)N2C(=O)C1CCCC1 | 2.4
O=C(C[C@@H]1CC[C@H]2[C@@H](COC[C@H](O)CN2Cc2cc(F)ccc2F)O1)NCc1ccccc1 | -4.2
C[C@@H]1CN([C@@H](C)CO)C(=O)c2cc(NC(=O)Cc3cn(C)c4ccccc34)ccc2O[C@H]1CN(C)Cc1ccc(C(=O)Nc2ccccc2N)cc1 | 5.7
CO[C@H]1CN(C)C(=O)c2ccc(NC(=O)C3CC3)cc2OC[C@H](C)N(CC2CC2)C[C@@H]1C | 8.7
Cc1ccc(S(=O)(=O)N(C)C[C@H]2Oc3ccc(NC(=O)Nc4ccccc4)cc3C(=O)N([C@H](C)CO)C[C@H]2C)cc1 | 18.1
CO[C@@H]1CN(C)C(=O)c2cc(NC(=O)C3CC3)ccc2OC[C@H](C)N(C(=O)c2ccccc2)C[C@@H]1C | 3.8
O=C(Nc1ccccc1)N1C[C@H]2[C@@H](c3ccccc31)[C@@H](CO)N2C(=O)c1ccccc1F | -9.1
O=C(NC[C@H]1N[C@H](CO)[C@@H]1c1ccc(C2=CCCCC2)cc1)c1cccc(F)c1 | -5.4
OC[C@H]1[C@H](c2ccc(C#CC3(O)CCCC3)cc2)[C@H]2CN(Cc3cncnc3)CCCCN21 | 6.9
CO[C@@H]1CN(C)C(=O)c2cc(NC(=O)NC3CCCCC3)ccc2OC[C@H](C)NC[C@@H]1C | 35.0
C[C@@H]1CN([C@@H](C)CO)C(=O)c2cc(NC(=O)Nc3ccc(F)cc3)ccc2O[C@H]1CN(C)C(=O)Nc1cccc2ccccc12 | -13.4
CO[C@@H]1CN(C)C(=O)c2cc(NS(C)(=O)=O)ccc2OC[C@@H](C)N(C(=O)c2ccc3c(c2)OCO3)C[C@@H]1C | -3.0
O=C(C1CCCC1)N1CCCCN2[C@@H](CO)[C@H](c3ccc(C#CC4CC4)cc3)[C@@H]2C1 | 17.3
COc1ccccc1C(=O)N1C[C@@H]2[C@H](c3ccccc31)[C@H](CO)N2C(=O)C1CCCC1 | -8.0
COCC(=O)Nc1ccc2c(c1)C(=O)N(C)[C@@H]1CC[C@@H](CC(=O)NCC3CCCCC3)O[C@@H]1CO2 | -5.6
CN(C)CC#Cc1ccc([C@@H]2[C@@H](CO)N3CCCCN(C(=O)C4CC4)C[C@@H]23)cc1 | 8.0
C[C@@H]1CN([C@H](C)CO)C(=O)c2cccc(NC(=O)c3nc4ccccc4s3)c2O[C@H]1CN(C)Cc1ccc(C(=O)Nc2ccccc2N)cc1 | -6.9
C[C@H]1CN([C@@H](C)CO)C(=O)c2cccc(NC(=O)c3ccc(-c4nccs4)cc3)c2O[C@H]1CN(C)C(=O)NC1CCCCC1 | -0.1
CO[C@H]1CN(C)C(=O)c2ccc(NC(=O)C3CCC3)cc2OC[C@@H](C)N(Cc2cccnc2)C[C@@H]1C | -10.6
C[C@H](CO)N1C[C@H](C)[C@H](CN(C)Cc2ccc3c(c2)OCCN3C)OCc2cnnn2CCCC1=O | 7.4
C[C@@H]1CN([C@@H](C)CO)C(=O)CCCn2nncc2CO[C@@H]1CN(C)CC1CC1 | 17.4
CN(C)C(=O)c1cccc(-c2ccc3c(c2)[C@@H]2[C@@H](CCN2C(=O)c2ccc4c(c2)OCO4)[C@H](CO)N3)c1 | -9.2
O=C(c1ccc(F)cc1)N1CCCCN2[C@H](C1)[C@H](c1ccc(-c3ccccc3)cc1)[C@@H]2CO | -4.2
C[C@H](O)C#Cc1ccc([C@@H]2[C@@H](CO)N3CCCCN(C(=O)c4ccncc4)C[C@@H]23)cc1 | 12.5
O=C(NC[C@@H]1[C@@H](c2ccccc2)[C@H](CO)N1C(=O)C1CC1)NC1CCCC1 | 22.5
C[C@H](CO)N1C[C@H](C)[C@@H](CN(C)C(=O)Nc2cccc3ccccc23)Oc2ccc(NS(=O)(=O)c3cccs3)cc2C1=O | 8.2
COc1ccc(NC(=O)N2C[C@@H](O)COC[C@@H]3O[C@@H](CC(=O)NC4Cc5ccccc5C4)CC[C@H]32)cc1 | 10.1
COc1ccc(C(=O)OCC(=O)NC2CCCCCC2)cc1OC | -6.2
CCN1[C@@H]2c3ccc(-c4ccccc4F)c(=O)n3C[C@H]1[C@H](CO)[C@H]2C(=O)NCc1ccccc1 | -15.6
CO[C@@H]1CN(C)C(=O)c2cc(NC(=O)C3CCC3)ccc2OC[C@@H](C)N(C(=O)CN(C)C)C[C@H]1C | 9.0
C[C@@H]1CN([C@@H](C)CO)C(=O)c2cc(NC(=O)NC3CCCCC3)ccc2O[C@@H]1CN(C)S(=O)(=O)c1ccc(F)cc1 | -5.4
CN(C)C(=O)c1ccc(-c2ccc([C@@H]3[C@H](CO)N4CCCCN(CC5CCOCC5)C[C@@H]34)cc2)cc1 | -0.2
CCCNC(=O)C[C@H]1C[C@@H]2c3cc(NC(=O)CN(C)C)ccc3O[C@@H]2[C@@H](CO)O1 | -17.7
Cc1ccccc1-c1ccc([C@@H]2[C@H]3CN(C(=O)Nc4ccccc4)CCCCN3[C@H]2CO)cc1 | 10.5
COc1cccc(C(=O)Nc2ccc3c(c2)OC[C@@H](C)N(CCc2ccccc2)C[C@H](C)[C@H](OC)CN(C)C3=O)c1 | 3.9
O=C(C[C@@H]1CC[C@@H]2[C@H](COC[C@H](O)CN2Cc2ccncc2)O1)NCC1CC1 | -7.1
CN1C(=O)c2cc(NC(=O)c3cccc(F)c3)ccc2OC[C@@H]2O[C@@H](CC(=O)N3CCc4ccccc4C3)CC[C@@H]21 | -16.4
COc1ccc(NC(=O)Nc2ccc3c(c2)C(=O)N([C@@H](C)CO)C[C@@H](C)[C@@H](CN(C)Cc2ccncc2)O3)cc1 | -11.6
O=S(=O)(Cc1ccccc1)N1CCCCN2[C@H](CO)[C@H](c3ccc(C#Cc4ccccc4)cc3)[C@H]2C1 | 15.8
CC(C)NC(=O)Nc1cccc2c1O[C@H](CN(C)Cc1ccncc1)[C@@H](C)CN([C@H](C)CO)C2=O | -5.7
C[C@H]1CN([C@@H](C)CO)C(=O)c2cccc(NC(=O)C3CCCCC3)c2O[C@@H]1CN(C)S(=O)(=O)c1ccc(F)cc1 | 10.4
CC(C)NC(=O)N(C)C[C@@H]1Oc2ccc(NS(=O)(=O)c3ccc(Cl)cc3)cc2C(=O)N([C@@H](C)CO)C[C@H]1C | -5.1
C[C@@H]1CN([C@H](C)CO)C(=O)c2cc(NC(=O)CCN3CCOCC3)ccc2O[C@@H]1CN(C)Cc1ccc(Oc2ccccc2)cc1 | 2.5
CNC[C@@H]1Oc2ccc(NS(=O)(=O)c3ccc(Cl)cc3)cc2CC(=O)N([C@H](C)CO)C[C@H]1C | 6.7
O=S(=O)(c1ccccc1)N1C[C@@H]2[C@H](c3ccccc31)[C@@H](CO)N2Cc1ccccc1 | -1.5
COc1ccc(S(=O)(=O)N(C)C[C@@H]2Oc3ccc(NC(=O)c4ccncc4)cc3C(=O)N([C@H](C)CO)C[C@@H]2C)cc1 | 8.5
CCCC#Cc1ccc([C@@H]2[C@H](CO)N3CCCCN(Cc4cccnc4)C[C@@H]23)cc1 | 6.8
C[C@H](CO)N1C[C@H](C)[C@H](CN(C)Cc2ccc3c(c2)OCO3)Oc2c(NC(=O)Nc3ccccc3)cccc2C1=O | -4.9
C[C@H](CO)N1C[C@H](C)[C@@H](CN(C)C(=O)Nc2ccc(F)cc2)Oc2c(NC(=O)C3CCCCC3)cccc2C1=O | -8.0

Remaining list, next part.
Structure	Yeast UUG start
C[C@@H]1CN([C@H](C)CO)C(=O)c2cc(NC(=O)Nc3ccc(F)cc3)ccc2O[C@H]1CN(C)C	3.6
C[C@@H]1CN([C@H](C)CO)C(=O)CCCn2nncc2CO[C@H]1CN(C)C(=O)Nc1ccccc1C(F)(F)F	29.0
CN(C)CC(=O)Nc1ccc2c(c1)[C@H]1C[C@@H](CC(=O)NCc3ccc(Cl)cc3)O[C@@H](CO)[C@H]1O2	3.5
CCCNC(=O)N1[C@H](CO)[C@@H](c2ccc(C3=CCCC3)cc2)[C@@H]1CN(C)C(C)=O	52.6
C[C@@H]1CN([C@@H](C)CO)C(=O)c2cccc(NS(=O)(=O)c3cccs3)c2O[C@H]1CN(C)Cc1ccc(C(=O)O)cc1	12.9
O=S(=O)(NC[C@H]1N[C@H](CO)[C@H]1c1ccccc1)c1ccccc1	-4.8
CN(C)C(=O)c1ccc(-c2ccc([C@@H]3[C@H](CO)N4CCCCN(Cc5ccncc5)C[C@@H]34)cc2)cc1	5.5
CCCNC(=O)C[C@H]1C[C@@H]2c3cc(NS(C)(=O)=O)ccc3O[C@@H]2[C@@H](CO)O1	-4.5
C[C@H](CO)N1C[C@H](C)[C@@H](CN(C)Cc2ccc(Oc3ccccc3)cc2)Oc2ccc(NS(=O)(=O)c3cn(C)cn3)cc2C1=O	9.1
C[C@@H]1CN([C@H](C)CO)C(=O)c2cc(NC(=O)NC3CCCCC3)ccc2O[C@H]1CN(C)S(=O)(=O)c1ccc(F)cc1	4.2
CO[C@@H]1CN(C)C(=O)c2ccc(NC(=O)C3CCCC3)cc2OC[C@@H](C)N(C(C)=O)C[C@H]1C	27.4
Cc1ccc(-c2ccc([C@H]3[C@H]4CN(C)CCCCN4[C@H]3CO)cc2)cc1	8.9
C[C@H](CO)N1C[C@H](C)[C@@H](CN(C)Cc2ccc3c(c2)OCO3)Oc2c(NC(=O)Nc3ccc(C(F)(F)F)cc3)cccc2C1=O	24.6
COc1cccc(CNC(=O)[C@H]2[C@H](CO)[C@H]3Cn4c(cccc4=O)[C@@H]2N3C(=O)C2CCC2)c1	7.9
C[C@@H]1CN([C@@H](C)CO)C(=O)c2cccc(NC(=O)C3CC3)c2O[C@H]1CN(C)CC1CC1	-7.3
CN1c2ccc(-c3ccccc3)cc2[C@@H]2[C@@H](CCN2C(=O)CC2CC2)[C@H]1CO	-2.2
CCC(=O)Nc1ccc2c(c1)C(=O)N(C)C[C@H](OC)[C@H](C)CN(Cc1cccnc1)[C@@H](C)CO2	2.4
CCS(=O)(=O)Nc1ccc2c(c1)C(=O)N(C)[C@H]1CC[C@@H](CC(=O)OC)O[C@H]1CO2	-8.4
CC(C)NC(=O)N1[C@H](CO)[C@@H]2c3ccccc3N(C(=O)Nc3ccc(Cl)cc3)C[C@@H]21	-11.0
CC(C)CC#Cc1ccc([C@@H]2[C@@H](CO)N3CCCCN(C(=O)c4ccc5c(c4)OCO5)C[C@@H]23)cc1	-6.6
Cc1noc(C)c1NC(=O)N(C)C[C@@H]1Oc2ccc(NS(=O)(=O)c3cccs3)cc2C(=O)N([C@@H](C)CO)C[C@@H]1C	-3.5
COc1ccc(-c2ccc3c(c2)[C@@H]2[C@@H](CCN2C(=O)c2cccc(F)c2)[C@@H](CO)N3)cc1	-15.2
C[C@@H]1CN([C@@H](C)CO)C(=O)c2cccc(NC(=O)Nc3ccc(F)cc3)c2O[C@@H]1CN(C)C	19.9
COc1ccc(CN(C)C[C@H]2Oc3c(NC(=O)NC(C)C)cccc3C(=O)N([C@@H](C)CO)C[C@H]2C)cc1	34.3
COCC#Cc1ccc([C@@H]2[C@@H](CO)N3CCCCN(C(=O)COC)C[C@H]23)cc1	1.0
Cc1noc(C)c1NC(=O)N(C)C[C@H]1Oc2ccc(NC(=O)Cn3cnnn3)cc2C(=O)N([C@H](C)CO)C[C@H]1C	5.6
C[C@H](CO)N1C[C@H](C)[C@@H](CN(C)CC2CCCCC2)Oc2c(NC(=O)c3nc4ccccc4s3)cccc2C1=O	5.5
C[C@H](CO)N1C[C@H](C)[C@H](CN(C)S(C)(=O)=O)Oc2ccc(NS(=O)(=O)c3cn(C)cn3)cc2C1=O	-13.8
CO[C@@H]1CN(C)C(=O)c2cc(NC(=O)Nc3ccccc3)ccc2OC[C@@H](C)N(CC2CC2)C[C@@H]1C	8.0
C[C@@H]1CN([C@H](C)CO)C(=O)c2cc(NC(=O)NC3CCCCC3)ccc2O[C@H]1CN(C)Cc1ccc(Oc2ccccc2)cc1	53.0
COc1ccccc1NC(=O)N1CCCCN2[C@@H](CO)[C@@H](c3ccc(-c4cccc(C)c4)cc3)[C@@H]2C1	18.2
O=C(NC1CCC1)[C@@H]1[C@@H](CO)[C@@H]2Cn3c(ccc(-c4ccncc4)c3=O)[C@@H]2N1CC1CC1	17.1
C[C@H](NC(=O)C[C@@H]1C[C@@H]2c3cc(NC(=O)CC4CC4)ccc3O[C@@H]2[C@@H](CO)O1)c1ccccc1	6.5
CC(C)NC(=O)N(C)C[C@H]1Oc2ccc(NC(=O)Nc3ccccc3)cc2CC(=O)N([C@H](C)CO)C[C@@H]1C	-1.5
CCNC(=O)[C@H]1[C@H](CO)[C@H]2Cn3c(ccc(-c4ccccc4)c3=O)[C@H]2N1Cc1cccnc1	-15.5
O=C(C1CCCCC1)N1[C@@H](CO)[C@@H]2c3ccccc3NC[C@@H]21	-14.0
C[C@@H]1CN([C@@H](C)CO)C(=O)Cc2cc(NC(=O)Nc3ccccc3)ccc2O[C@H]1CN(C)Cc1ccc2c(c1)OCO2	14.4
